Screening results: PubChem, National Center for Advancing Translational Sciences (NCATS)
Lassa entry inh: qHTS for Inhibitors of binding or entry into cells for Lassa Virus; Lassa virus pseudotype entry inhibition, cell reporter; control for the full effect not named in the record; Potency, µM (doses to about 37.9 µM), without a hit: at the highest dose activity change, negative = inhibition, hits mostly inhibitors; 300,000 compounds, 1.2% hits; active means well fitted inhibition curve with a large enough effect; inconclusive means small, poorly fitted or top-dose-only effect, or effect the other way; inactive means flat fitted curve, though single readings scatter; tested in HEK293 cells; also: % is scaled to controls: 0 for no effect and ±100 for the full control effect; nearly all actives have a fitted effect of over 50% in size; luciferase read-out
Cruzain inh Det: qHTS Assay for Promiscuous and Specific Inhibitors of Cruzain (with detergent); Potency, µM, for the others: max response, negative = inhibition, most hits filed as inhibitors; purified cruzain, Z-FR-AMC fluorescence, 0.01% Triton; 200,000 compounds, 0.43% hits; Cruzipain (Trypanosoma cruzi), P25779;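 also: plate controls were neutral wells for no effect and buffer without enzyme for full effect; nearly all actives have a fitted effect of over 40% in size; top concentration of the series not given in the record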
Target sequence (P25779 123-467 limits assumed): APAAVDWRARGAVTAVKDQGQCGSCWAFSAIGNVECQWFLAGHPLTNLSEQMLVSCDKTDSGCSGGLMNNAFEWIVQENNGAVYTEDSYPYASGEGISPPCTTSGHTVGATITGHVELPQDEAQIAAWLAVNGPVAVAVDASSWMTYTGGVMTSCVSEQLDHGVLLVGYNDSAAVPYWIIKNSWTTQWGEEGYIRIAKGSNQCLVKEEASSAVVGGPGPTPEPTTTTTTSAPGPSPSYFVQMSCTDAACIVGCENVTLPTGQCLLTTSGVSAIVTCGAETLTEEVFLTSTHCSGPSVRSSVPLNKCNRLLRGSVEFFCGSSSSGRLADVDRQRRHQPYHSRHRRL
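Cruzain (1.5 nM) preincubated 15 min at RT with compound in 100 mM sodium acetate pH 5.5, 5 mM DTT, 0.01% Triton X-100. Reaction started with 2 uM Z-FR-AMC; AMC fluorescence (ex 360/em 450 nm) change over 60 s gave rate.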
RE007 growth inh: qHTS Assay for Inhibitors of the HIV-1 protein Vpr | Potency, µM (top dose mostly 92.2 µM), inactives show at the top dose activity change, negative = less growth | AID 651644, 2012 | 360,000 compounds, 0.21% hits | S. pombe RE007 Vpr strain, BacTiter-Glo ATP luminescence, 24 h; control for the full effect not named in the record; active = well fitted falling curve with a large enough effect; inconclusive = small, poorly fitted or top-dose-only effect; inactive = no such curve, though single readings can be large or run the other way;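 also: % is scaled to controls: 0 for no effect and ±100 for the full control effect; nearly all actives have a fitted effect of over 50% in size; the assay follows cell death caused by Vpr and the record does not say whether a fall means rescue or toxicity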
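Fission yeast RE007 carrying one integrated HIV-1 vpr copy, seeded at OD 0.01 in PMG+AL medium with 23 nL pinned compound. Grown 24 h at 30 degrees; viability read by BacTiter-Glo luminescence after 5 min.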
NS1 function inh: qHTS Assay for Inhibitors of Influenza NS1 Protein Function; 270,000 compounds, 0.4% hits; AID 2326, 2010; S. cerevisiae slowed by influenza A NS1, growth recovery by OD600; Potency, µM (doses to about 46.1 µM), for inactives: at the top dose activity, positive = more growth; active means well fitted rising curve with a large enough effect; inconclusive means small, poorly fitted or top-dose-only effect; inactive means no such curve, though single readings can be large or run the other way; also: nearly all actives have a fitted effect of over 50% in size
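A cell-based growth assay was used: compounds that relieve NS1-induced slow growth of budding yeast raise OD600. Assay medium was yeast nitrogen base with ammonium sulphate and -URA supplement, pH 6.0, with 2% galactose.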
SARS PLP yeast: qHTS of Yeast-based Assay for SARS-CoV PLP. AID 485353, 2010. 330,000 compounds, 0.19% hits. S. cerevisiae expressing SARS-CoV PLpro, growth rescue; control for the full effect not named in the record. Potency, µM (doses to about 32.9 µM), inactives show top-dose activity, positive = growth rescue; active means well fitted rising curve with a large enough effect; inconclusive means small, poorly fitted or top-dose-only effect; inactive means no such curve, though single readings can be large or run the other way; also: 0% is about no effect; nearly all actives have a fitted effect of over 55% in size; growth read by luminescence after 48 h
MARV entry inh: qHTS for inhibitors of binding or entry into cells for Marburg Virus; Potency, µM (series often up to 37.8 µM), for the others: at the highest dose activity change, negative = inhibition, actives largely listed as inhibitors; AID 540276, 2011; 300,000 compounds, 1.8% hits; Marburg virus pseudotyped entry inhibition, cell reporter; control for the full effect not named in the record; about a third of the inactives were read at about 46 µM; active = well fitted inhibition curve with a large enough effect; inconclusive = small, poorly fitted or top-dose-only effect, or effect the other way; inactive = flat fitted curve, though single readings scatter; tested in HEK293 cells; about a fifth of its hits are not listed in these tables; also: % is scaled to controls: 0 for no effect and ±100 for the full control effect; luciferase read-out
StopGo reporter: High Throughput Screening for Foot and Mouth Disease Virus Antivirals; human cells with a luciferase reporter of 2A StopGo recoding; control for the full effect not named in the record; 410,000 compounds, 1.2% hits; Potency, µM (doses to about 57.9 µM), without a hit: at the top dose signal change, negative = less light; active = well fitted falling curve with a large enough effect; inconclusive = small, poorly fitted or top-dose-only effect; inactive = no such curve, though single readings can be large or run the other way; tested in HEK293T cells; also: % is scaled to controls: 0 for no effect and ±100 for the full control effect; nearly all actives have a fitted effect of over 45% in size; luciferase light after 4 h
Cruzain inh noDet: qHTS Assay for Promiscuous and Specific Inhibitors of Cruzain (without detergent); purified cruzain, Z-FR-AMC fluorescence, no detergent; Potency, µM, for the others: max response, negative = inhibition, usual class: inhibitors; 200,000 compounds, 2.3% hits;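 also: plate controls were enzyme without inhibitor for no effect and buffer without enzyme for full effect; nearly all actives have a fitted effect of over 40% in size; top concentration of the series not given in the record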
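Detergent-free condition (0.00005% Triton X-100) in acetate buffer pH 5.5 with DTT. 1.5 nM enzyme and compound were pre-mixed 15 min, then 2 uM Z-FR-AMC substrate added; reaction progress from fluorescence change between first and third reads (60 s).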
Active calls of the source: *; ? = inconclusive; nt = not tested or not shown; [ ] = remark or other dose. Unless noted, calls follow the shape of the dose curve; as a rule, active = well fitted curve in the direction sought with a large enough effect; inconclusive = small, poorly fitted or top-dose-only effect, or another doubt; inactive = no such curve, though single readings can be large; an effect the other way counts as inactive or inconclusive. Potency is read from the fitted curve at half-maximal effect.

SMILES	Lassa entry inh	Cruzain inh Det	RE007 growth inh	NS1 function inh	SARS PLP yeast	MARV entry inh	StopGo reporter	Cruzain inh noDet
COc1ccccc1CC(=O)Nc1ccc([N+](=O)[O-])cc1OC	-12%	-3.2%	-14%	-5%	-18%	?	-19%	-6%
CC(C)=CC/C=C1\CCC(C(=O)O)C(C(=O)O)C1 (stereo not drawn)	5%	3.8%	-2%	10%	-2%	-5%	nt	-10%
CCN1CCc2nc3sc(C(=O)Nc4ccccc4OC(F)(F)F)c(N)c3cc2C1	-1%[46.1 µM]	-7.9%	nt	nt	nt	?	-10%	?
Cc1cccc(NS(=O)(=O)c2ccc(C(=O)NCC3(N4CCCCC4)CCCCC3)cc2)c1C	?	nt	5%	nt	nt	11µM*	1%	nt
O=C(N/N=C/c1cn(-c2ccccc2)nc1-c1cccs1)c1ccc(Cl)cc1	?	-9.3%	3%	22%	-3%	?	-28%	13µM*
CN(CC(=O)Nc1cccc(C#N)c1)Cc1ccc(Cl)cc1	22%	nt	-8%	-8%	1%	-3%[46.1 µM]	-23%	nt
CCCCn1c(NC(=O)c2ccccc2Cl)c(C#N)c2nc3ccccc3nc21	-8%	?	-2%	-123%	-24%	21µM*	0%	?
CC(=O)c1cccc(N(C(=O)CNC(=O)c2ccco2)C(C(=O)NC2CCCC2)c2ccc(C)o2)c1 (stereo not drawn)	9%	nt	15%	-1%	0%	5%[46.1 µM]	1.8µM*	nt
COc1ccccc1NC(=O)CSC1=Nc2ccccc2C2=NC(CC(=O)NCCc3ccccc3)C(=O)N12 (stereo not drawn)	-7%[46.1 µM]	-4.0%	nt	nt	nt	nt	12%	27%
Cc1ccc(-n2nc(C)c3c(C)cc(=O)n(CC(=O)Nc4ccc(Br)cc4F)c32)cc1	-2%[46.1 µM]	-2.5%	nt	nt	nt	nt	0%	-1%
COc1cc(OC)c(NC(=O)c2sc3ncn(CC(=O)N4CCOCC4)c(=O)c3c2C)cc1Cl	20%[46.1 µM]	nt	-1%	9%	-1%	2%[46.1 µM]	-4%	nt
O=C(COc1ccc(Cl)cc1)Nc1nc(-c2ccncc2)cs1	0%[46.1 µM]	nt	-3%	-15%	?	28%[46.1 µM]	3%	nt
Cc1ccc(N2C(=O)CSC2c2cccs2)cc1 (stereo not drawn)	9%	-3.0%	1%	-5%	3%	2%	nt	-2%
Cc1n[nH]c(C)c1Sc1ccccc1[N+](=O)[O-]	4%	nt	18%	nt	-8%	?	-14%	nt
Cc1ccc(C(=O)Nc2cc(C)nn2CCC#N)cc1	7%	nt	9%	-8%	-1%	-1%[46.1 µM]	-18%	nt
CCCSc1ncc(Cl)c(C(=O)Nc2sc3c(c2C(=O)OC)CCCC3)n1	-14%[46.1 µM]	0.6%	nt	nt	nt	2%[46.1 µM]	-6%	-11%
COC(=O)c1[nH]nc2c1C(=O)N(Cc1ccccc1)C2=O	0%	2.1%	8%	-65%	-32%	0%	-20%	-3%
CC1(C)CC(n2[nH]c(=O)c3c2NC(=O)CSC3c2ccccc2)CCO1 (stereo not drawn)	18%	6.4%	8%	3%	3%	14%	17%	12%
COC(=O)c1cccc(S(=O)(=O)N2CCCC2)c1	18%	0.1%	9%	1%	5%	26%	0%	1%
COCCN(Cc1nc(-c2ccc(C(F)(F)F)cc2)no1)C(C)C	3%	nt	-12%	-2%	-1%	-24%[46.1 µM]	0%	nt
COc1ccccc1Oc1ccc(NC(=O)c2ccccc2)cc1	23%	nt	-9%	1%	0%	2%[46.1 µM]	9%	nt
O=C(Nc1ccc(F)c(S(=O)(=O)N2CCOCC2)c1)C1CCCCC1	-11%	nt	11%	nt	2%	?	-21%	nt
N#Cc1cccc(NC(=O)CN2NS(=O)(=O)c3ccccc3C2=O)c1	21%	6.7%	-25%	3%	2%	12%	-2%	-3%
Cn1ncc2c(N3CCN(c4ccc(Cl)c(Cl)c4)CC3)ncnc21	3%	nt	1%	-1%	0%	18%[46.1 µM]	11µM*	nt
O=C(Cn1c(=O)oc2cc(Cl)ccc21)Nc1cccc(C(F)(F)F)c1	7%[46.1 µM]	-6.2%	nt	nt	nt	nt	?	-1%
CC(C)[C@H](NC(=O)c1ccco1)C(=O)OCC(=O)Nc1ccc(F)cc1	nt	nt	13%	nt	3%	-7%[46.1 µM]	-11%	nt
COc1cc2c(cc1OC)C(COc1ccccc1OC)N(C(=O)COc1ccc(Cl)cc1)CC2 (stereo not drawn)	?	-0.8%	nt	nt	nt	nt	?	-5%
Cc1ccc(SCCC(=O)N2CCC(C(N)=O)CC2)cc1	16%	1.3%	0%	4%	?	30%	55%[activator]	-2%
Cc1ccc(-n2c(C)cc(C(=O)CSc3n[nH]c(N)n3)c2C)cc1	?	-5.1%	9%	13%	-5%	-7%	-8%	-24%
CCc1ccc(NC(=O)CSc2nnc(SCC(=O)Nc3ccc(CC)cc3)n2N)cc1	-28%	-2.9%	20%	3%	3%	-15%	9%	17%
CC(C)n1c(SCC(=O)N2c3ccccc3Sc3ccccc32)nc2c1c(=O)n(C)c(=O)n2C	?	-3.7%	9%	-17%	-6%	9.2µM*	nt	14%
Cc1csc(NC(=O)c2cccc(S(=O)(=O)N3CCCCC3)c2)n1	-30%	-3.1%	10%	0%	-1%	-52%	-27%	-13%
O=C1CCCN1c1ccc(S(=O)(=O)O)cc1 (tested in a mixture with another compound)	8%	0.0%	nt	6%	-13%	2%	-12%	3%
Cc1nn(-c2ccccc2)c(C)c1NC(=O)COC(=O)c1ccc(O)cc1O	-29%[46.1 µM]	nt	9%	14%	-3%	4%[46.1 µM]	0%	nt
C=CCNC(=O)c1cc(Cl)ccc1Cl	-13%	3.0%	15%	26%	1%	7%	20%	-10%
CCOC(=O)c1cnc(-c2ccccc2)nc1N1CC(C)OC(C)C1 (stereo not drawn)	5%	nt	-18%	-9%	0%	-13%	-12%	nt
O=C(Nc1ccc(F)cc1F)c1ccc(-c2ccccc2)s1	?	-3.7%	nt	nt	nt	?	54%[activator]	?
N#CC1(NC(=O)CSc2nnc(Nc3ccccc3F)s2)CCCC1	-16%	nt	-3%	nt	-5%	3%	28%	nt
CCOC(=O)C1(C)C=C(Nc2ccc(OCC)cc2)C(=O)N1c1ccccc1 (stereo not drawn)	-2%	-4.5%	-4%	14%	10%	8%	2%	-7%
N#CC(c1ccccc1)c1ccc(C(=O)c2ccc(F)cc2)cc1 (stereo not drawn)	?	-3.6%	0%	18%	2%	-13%	-54%	2%
Cc1cc2ccccc2n1CCNC(=O)c1ccc(S(=O)(=O)N2CCOCC2)cc1	-3%	-2.3%	-1%	10%	2%	-1%	nt	18%
O=c1cc(-c2ccccc2)nc(SCc2nc(-c3ccc(C(F)(F)F)cc3)no2)[nH]1	23%[46.1 µM]	-2.4%	nt	nt	nt	-7%[46.1 µM]	-11%	?
FC(F)Sc1ccc(NC2=NCCCCC2)cc1	nt	nt	0%	0%	0%	nt	-11%	nt
CCOC(=O)C1CCCN(c2c(NCCCN(C)c3ccccc3)c(=O)c2=O)C1 (stereo not drawn)	nt	-0.7%	5%	-8%	2%	nt	-1%	-7%
O=C(O)c1ccccc1N=Nc1c(O)[nH]c(=O)[nH]c1=O	nt	nt	6%	-1%	-1%	nt	-15%	nt
COCc1nnc(NC(=O)CSc2ccccc2)s1	10%	0.8%	-5%[3.69 µM]	6%	9%	-5%	14%	6%
COc1ccc(C(=O)N/C(=C\c2cn(S(=O)(=O)N(C)C)c3ccccc23)C(=O)NCCN2CCOCC2)cc1	nt	nt	1%	-3%	5%	nt	6%	nt
O=C(COC(=O)c1cc(Br)ccc1O)NNC(=O)c1cccs1	8%	nt	-3%	nt	-2%	1%	6%	nt
Fc1ccc(-n2c(-c3ccco3)n[nH]c2=S)cc1	20%[46.1 µM]	nt	12%	8%	0%	-1%[46.1 µM]	5%	nt
Cc1cc(=O)[nH]c(SCC(=O)NNC(=O)Cc2ccccc2)n1	-3%	nt	28%	3%	-7%	2%	-4%	nt
CC(C)CCn1c(COc2ccccc2)nn(CCC#N)c1=S	nt	nt	4%	4%	-1%	nt	?	nt
Cc1ccc(OCCCCN(C)Cc2ccccc2)c(Br)c1	?	-2.4%	-13%	-27%	-23%	?	?	-6%
CCN(Cc1ccccc1)Cc1ccc(OCc2ccccc2)cc1	nt	nt	-29%	-98%	-19%	nt	18%	nt
Cc1c2cnn(CC(=O)N3CCC4(CC3)OCCO4)c(=O)c2c(C)n1Cc1ccc(F)cc1	-5%	-2.2%	-14%	8%	-2%	-27%	?	19%
O=C(NCCCc1ccccc1)Nc1ccccc1	11%	-1.5%	18%	-14%	4%	15%	11%	-15%
Cc1ccc(Cn2nc(C(=O)Nc3ccc(Br)cc3)cc2C)cc1	nt	nt	-5%	-4%	-2%	nt	-4%	nt
Cc1nc2ccccn2c1/C(O)=C1\C(=O)C(=O)N(CCN2CCOCC2)C1c1cccnc1 (stereo not drawn)	13%	2.5%	-3%	-3%	5%	4%	-19%	6%
O=C(NCCc1ccccc1)C1CCC(CNS(=O)(=O)c2cccs2)CC1 (stereo not drawn)	?	nt	6%	nt	0%	14%[46.1 µM]	5%	nt
Cc1ccc2nc(SCC(=O)Nc3ccc4c(c3)CCC4)[nH]c2c1	?	-8.5%	6%	56%	-2%	?	5%	3%
CC1(C)NC(=O)N(CC(=O)N2CCC(Cc3ccccc3)CC2)C1=O	24%[46.1 µM]	nt	12%	-2%	4%	21%[46.1 µM]	-2%	nt
COc1ccc(NC(=O)c2sc3nc4c(cc3c2N)CN(Cc2ccccc2)CC4)c(OC)c1	-3%[46.1 µM]	-4.4%	nt	nt	nt	-3%[46.1 µM]	?	2%
